WT yeast gro inh: growth inhibition of WT yeast, mitochondrial fusion screen | mitochondrial fusion phenotypic screen, WT strain | inhibition, % at 10 µM | 190,000 tested, 2.1% active | AID 1362; in the data active means inhibition above about 58%; tested in S. cerevisiae
T cell HTS: T cell immune modulators affecting CD8 T cell-vesicle binding; 330,000 tested, 0.068% active; calls only at 7 µM; 2C CD8+ T cell-vesicle binding, flow cytometry; active compounds read low; AID 2052;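 active means response, share of CD8 T cells binding vesicles, and their 90th percentile fluorescence all below set limits, cut at about 80% in these data, passing the limit was not always enough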
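System: murine 2C transgenic CD8+ T lymphocytes; also added: QL9-loaded Drosophila micro-vesicles; times: binding 1.5 h at 37 °C; measured by: flow cytometry, PE anti-B7-1 (FL2) versus Alexa647 anti-CD8 (FL8), PFA-fixed; control set: Peptide-free naked vesicles (low) and QL9 vesicles with 0.7% DMSO vehicle (high)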
Large T inhibition: SV40 large T antigen inhibitors, biochemical (AID 1903); SV40 large T antigen ATPase/helicase inhibition assay; higher % means a stronger effect; inhibition, % at 20 µM; hits with a dose series show IC50 in µM; 310,000 tested, 0.39% active; in the data active means a potency from the dose series; inconclusive means inhibition mostly from about 32% at the one dose, without a potency; inactive means the rest, 99 in 100 with inhibition below about 32%; further: strong numbers were not always called active
RSV antiviral HEp-2: inhibition of RSV-induced cytopathic effect – HEp-2 cells, primary 10 µM value included (AID 2391); 310,000 tested, 0.13% active; CPE inhibition, % at 10 µM; hits with a dose series show IC50 in µM; HEp-2 cells, RSV-induced CPE inhibition; higher % means a stronger effect; in the data active means a potency from the dose series; inconclusive means CPE inhibition mostly from about 23% at the one dose, without a potency; inactive means the rest, 99 in 100 with CPE inhibition below about 21%; further: strong numbers were not always called active
Salmonella PhoP GFP: PhoP-dependent GFP reporter repression – Salmonella Typhimurium, primary screen (AID 1863). S. Typhimurium PhoP-regulated promoter GFP reporter, 4 h; higher % means a stronger effect. inhibition, % at 50 µM; hits with a dose series show IC50 in µM. 300,000 tested, 0.16% active;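 active means inhibition over 29.93%, a cutoff 3 SD above the screen mean, later confirmed by dose response; inconclusive means inhibition over 29.93% but no dose response follow-up; inactive means inhibition at most 29.93% or unconfirmed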;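 further: 0% = low Mg2+ inducing control and 100% = high Mg2+ repressing control; strong numbers were not always called active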
Myeloid diff MLP: myeloid differentiation induction; calls only at 10 µM; ER-HoxA9 myeloid progenitors, lysozyme-GFP differentiation, flow cytometry; 360,000 tested, 1% active;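 active means normalized GFP-positive differentiation at or above the plate's own cutoff, the solvent-only control mean plus 3 SD; inconclusive means no clear call, values can overlap the other calls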;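 further: cells exposed to compound for four days before flow analysis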
Rac1 GTP hydrolysis: MgcRacGAP GTPase-activating activity inhibitors, confirmation, biochemical, ADP Hunter fluorescence. 340,000 tested, 0.6% active. inhibition, % at 30 µM; hits with a dose series show IC50 in µM. MgcRacGAP-stimulated Rac1 GTP hydrolysis, ADP Hunter fluorescence; higher % means a stronger effect; GST-tagged Rac1 F28L mutant substrate;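 active means first-screen hits whose inhibition reached a set limit at any dose in the follow-up dose series; inconclusive means inhibition above the set first-screen limit but never retested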;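 further: fluorescence reports GDP produced by GAP-driven GTP hydrolysis; strong numbers were not always called active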
West Nile virus CPE: inhibition of WNV-induced cytopathic effect – cell-based, CPE readout (AID 1621) | West Nile virus-infected cells, CPE inhibition; higher % means a stronger effect | 290,000 tested, 0.02% active | CPE inhibition, % at 10 µM, or IC50 in µM where a hit was titrated; in the data active means a potency from the dose series; inconclusive means CPE inhibition mostly from about 3.7% at the one dose, without a potency; inactive means the rest, 99 in 100 with CPE inhibition below about 2.2%; further: strong numbers were not always called active
WT yeast gro inh mutant strain: second read-out of WT yeast gro inh, no call of its own (marks repeat the call); inhibition, %; mitochondrial fusion phenotypic screen, mutant strain inhibition
T cell HTS vesicle-bound %: also measured in T cell HTS; calls as there; double positive events, %; measured here: CD8+ vesicle-bound cell fraction;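 binding gate set so that unloaded-vesicle control wells show 10% double positive cells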
Myeloid diff MLP GFP+ MAC1+ %: recorded beside Myeloid diff MLP, whose call it bears; GFP+ MAC1+ double positive, %; measured here: differentiation confirmed by MAC1 staining
* hit, by the source's call; i = inactive; ? = inconclusive; . = not tested or not shown. Only part of the results is shown (hit frequency here may not be typical).

mol	WT yeast gro inh	WT yeast gro inh mutant strain	T cell HTS	T cell HTS vesicle-bound %	Large T inhibition	RSV antiviral HEp-2	Salmonella PhoP GFP	Myeloid diff MLP	Myeloid diff MLP GFP+ MAC1+ %	Rac1 GTP hydrolysis	West Nile virus CPE
CC(=O)c1cn(CC(=O)Nc2ccccc2C)c2ccccc12	-8	-29	i	35	0%	-1.0%	-5%	i	0.9	8%	-0.5%
Cc1ccccc1C(=O)N/C(=C/c1ccc(-c2cccnc2Cl)o1)C(=O)NCCCN1CCN(C)CC1	18	1	i	4	17%	-1.0%	-2%	i	0.0	3%	0.5%
Cn1ncc(Br)c1C(=O)O	1	4	i	54	6%	0.9%	1%	i	0.3	3%	.
O/N=C/c1cc(Br)ccc1OCc1cccc(F)c1	34	24	i	38	1%	14%	13%	i	0.7	5%	1.5%
CCOc1c2ccc(C(=O)NCc3ccc(OC)cc3)cc2nn1CCOC	16	30	i	58	12%	0.5%	-2%	i	0.9	-2%	-0.5%
CCOc1c2ccc(C(=O)NCc3ccc(C)cc3)cc2nn1CC	5	-2	.	.	0%	1.8%	-8%	i	1.0	5%	-0.1%
COc1ccc(Cl)cc1NC(=O)C1CCCN(c2cc(C)nc3ncnn23)C1 (stereo not drawn)	1	-2	i	20	0%	21%	3%	i	6.4	4%	-0.2%
NC(=O)CNC(=O)[C@@H]1CC2(CC(c3ccc(Cl)cc3)=NO2)CN1C(=O)c1ccccc1 (stereo partly drawn)	-14	-10	i	30	2%	4.1%	4%	i	2.5	-6%	0.4%
CC(=O)NS(=O)(=O)c1ccc(NC(=O)NC2CCCCC2)cc1	21	5	i	50	7%	-0.8%	-9%	i	1.2	-3%	0.3%
CCCc1cc(=O)oc2c(CN3CCOCC3)c(O)ccc12	-7	-5	i	24	7%	2.1%	6%	.	.	4%	0.3%
O=C(CCCCCn1c(=S)[nH]c2ccccc2c1=O)NCc1ccc2c(c1)OCO2	6	18	i	9	1%	1.9%	1%	i	0.7	6%	-0.1%
O=S(=O)(c1ccc2nc(SCc3cccc(Cl)c3)[nH]c2c1)N1CCOCC1	3	1	i	10	15%	19%	-10%	i	0.6	5%	-1.5%
CC(C)C(NS(=O)(=O)c1cccs1)C(=O)NCCN1CCN(c2ccccc2)CC1 (stereo not drawn)	19	24	i	34	17%	1.0%	-1%	i	0.7	4%	-0.4%
COc1ccc(Cl)cc1S(=O)(=O)N1CCN(C(=O)c2cc(OC)c(OC)c(OC)c2)CC1	-2	10	.	.	6%	.	-1%	i	1.6	2%	-0.5%
Cc1ccnc(NC(=S)NC(=O)c2ccco2)c1	22	32	i	43	0%	0.1%	-3%	i	0.0	11%	.
Cc1ccc(C2CC(=O)c3cnc(N4CCc5ccccc5C4)nc3C2)cc1 (stereo not drawn)	14	0	i	50	6%	13%	11%	i	0.8	6%	0.5%
O=C(O)c1ccc(S(=O)(=O)NC2CCCc3ccccc32)cc1 (stereo not drawn)	-2	-6	i	32	1%	0.8%	-8%	i	0.9	11%	0.2%
CCOC(=O)c1sc(NC(=O)CSc2nc(C)cc(C)n2)c(C#N)c1C	5	-6	i	28	0%	?	2%	i	3.3	2%	-0.6%
O=C(NCc1ccc(Cl)cc1)c1cnccn1	35	25	i	26	8%	1.7%	3%	i	0.3	3%	0.0%
O=C(OCc1ccccc1)c1cccc(-c2nnc(-c3ccccc3)o2)c1	15	0	.	.	4%	1.7%	12%	i	5.0	12%	0.3%
O=C(O)C=C1CCN(c2ncc(C(F)(F)F)cc2Cl)CC1	2	1	i	16	14%	0.8%	-7%	i	0.9	4%	-0.2%
CCOC(=O)C1CCN(C(=O)C2CCN(c3nc4ccc(OC)cc4s3)CC2)CC1	-2	-11	i	10	7%	11%	-5%	i	1.2	12%	-0.3%
COc1cc(/C=C(/C#N)C(=O)NCCc2c[nH]c3ccccc23)ccc1OCc1ccccc1F	-3	5	i	12	5%	-0.2%	3%	i	1.0	-4%	-0.6%
CCOc1nc(NC(C)C)nc(NC(C)C)n1	11	-20	i	22	0%	2.5%	6%	i	0.4	6%	-0.3%
CCOc1cc(/C=N/NC(=O)Cc2ccc(C(F)(F)F)cc2[N+](=O)[O-])c(Br)cc1OC	13	14	i	24	5%	0.4%	0%	i	1.8	-7%	-0.3%
COC(=O)C1=C(NC(=O)c2ccc(C)cc2)CCS1	-7	-4	i	53	18%	-0.1%	-5%	i	0.5	3%	0.7%
Cc1ccc2c(c1)c(Sc1ccccc1)c(CC(=O)O)n2C	-31	-44	i	34	7%	2.4%	10%	i	1.0	13%	-0.3%
CCOc1ccc(N2CC(=O)N(c3ccc(OCC)cc3)CC2=O)cc1	7	19	i	18	9%	0.1%	-6%	i	0.7	2%	-0.2%
CN(C)C(=O)c1ccc(-n2nc(C(F)(F)F)c3c2CCCC3)cc1	1	-6	i	47	-2%	-0.6%	0%	i	0.5	8%	-0.5%
CC(C)(C)n1ncc2c(=O)n(Cc3ccc(Cl)cc3Cl)cnc21	17	86	i	14	-1%	1.2%	13%	i	1.6	7%	0.1%
CCOC(=O)C(=Cc1ccc(F)cc1)C(=O)OCC	10	21	i	12	25%	-1.3%	-1%	.	.	.	15%
Cc1cccc(C(=O)Nc2cccc(C(=O)N3CCOCC3)c2)c1	4	6	i	52	-3%	0.4%	6%	i	9.1	-5%	-0.1%
c1ccc(-c2nc(NCc3ccco3)c3oc4ccccc4c3n2)cc1	-6	0	i	20	0%	4.9%	-2%	i	5.8	0%	0.6%
CCCS(=O)(=O)N1CCCC(C(=O)NCc2cccnc2)C1 (stereo not drawn)	0	-2	i	14	9%	-0.9%	5%	i	0.6	9%	0.3%
COc1ccc(S(=O)(=O)Nc2cc3c4c(oc3c3ccccc23)CC(C)(C)CC4=O)cc1	37	4	i	16	-1%	?	11%	i	2.7	9%	0.5%
CCN(CC)S(=O)(=O)c1cccc(C(=O)Nc2ccc(Cl)cn2)c1	4	11	i	12	14%	3.3%	8%	i	0.9	1%	-1.2%
COc1ccc(CCNC(=O)Cc2cc(OC)c(OC)cc2[N+](=O)[O-])cc1OC	14	4	i	25	16%	2.3%	-11%	i	1.3	6%	1.1%
COc1ccc(C(=O)C(CCCCC(CN(C)C)C(=O)c2ccc(OC)cc2)CN(C)C)cc1 (stereo not drawn)	-5	-24	i	48	-3%	-3.6%	2%	i	0.2	23%	.
Cc1ccc(S(=O)(=O)N(C)c2cc(S(=O)(=O)N3CCC(C)CC3)c(C)cc2C)cc1	-2	9	i	49	-1%	?	-5%	i	3.0	-3%	-0.3%
CC(C)(C)NC(=O)CN(Cc1cccs1)C(=O)C1COc2ccccc2O1 (stereo not drawn)	-4	-10	i	11	-4%	0.7%	6%	i	0.7	3%	-0.3%
O=C(CSCc1ccc(Cl)cc1)Nc1ccc2c(c1)OCCO2	19	-1	i	38	10%	0.3%	1%	i	1.4	5%	13%
O=C(c1ccc(CN2CCc3ccccc3C2)cc1)N1CCc2ccccc2C1	7	3	i	41	11%	0.6%	2%	i	0.7	6%	.
CC(C)(C)NC(=O)C(Cc1ccccc1)NS(=O)(=O)c1ccc2c(c1)CCC(=O)N2 (stereo not drawn)	-3	11	i	50	14%	-0.7%	21%	i	5.8	6%	-0.6%
COc1ccc(CCNc2nc(-c3ccco3)cc(C(F)(F)F)n2)cc1OC	19	-2	i	15	12%	1.1%	14%	i	0.5	6%	-0.2%
CCCCCC1CC1C(=O)N/N=C/c1ccc(N(C)C)cc1 (stereo not drawn)	1	9	i	14	13%	3.2%	3%	i	0.4	6%	-0.4%
Cn1nnnc1SCC(=O)Nc1ccccc1[N+](=O)[O-]	-17	-8	i	50	0%	3.6%	7%	i	0.0	1%	0.1%
CCOc1ccc(NC(=O)CCSc2nnc(C)s2)cc1	4	2	i	56	13%	1.3%	13%	i	2.8	1%	0.1%
CN(C)S(=O)(=O)Oc1ccsc1C(=O)Nc1ccc(Cl)cc1	8	3	i	34	-3%	16%	12%	i	0.5	-1%	-0.3%
CCOc1ccc(Cl)cc1/C=N/O	8	9	i	16	6%	1.1%	-11%	i	6.2	5%	0.6%
O=C(Cn1c(SCc2ccccc2)nc2ccccc21)N1CCOCC1	-13	2	i	11	8%	0.5%	13%	i	0.5	10%	-0.3%
Cc1c(NC(=S)NC(=O)C(c2ccccc2)c2ccccc2)cccc1C(=O)O	12	5	i	41	-1%	2.0%	-2%	i	1.0	3%	0.4%
COC(=O)c1ccc(CSc2nnc(NC(C)C)s2)cc1	13	-4	i	30	-11%	1.0%	24%	i	1.2	0%	0.1%
CCCCCOC(=O)C1=C(C)Nc2nnnn2C1c1ccc(OC)c(OC)c1OC (stereo not drawn)	0	3	i	51	-3%	-1.6%	32%	i	0.7	0%	2.8%
O=C(COC(=O)c1ccncc1)NC(=O)C1CCCCC1	36	-1	i	20	2%	-1.1%	-4%	i	7.0	3%	0.1%
COc1ccc(/C=N/NC(=O)c2sccc2OCc2ccc(F)cc2)cc1OC	-1	-1	i	41	4%	2.1%	3%	i	1.0	12%	0.1%
CS(=O)(=O)N1CC(C(=O)NC2CCCC2)Oc2ccc(Cl)cc21 (stereo not drawn)	-8	1	i	57	-6%	1.0%	-7%	i	0.7	-1%	-0.7%
CC(O)CNCc1ccc(-c2ccccc2)cc1 (stereo not drawn)	-11	-4	i	26	4%	-0.1%	26%	i	2.1	7%	1.3%
Cc1snc(SCC(=O)N/N=C(\N)COc2cccc(C(F)(F)F)c2)c1C#N	8	-12	i	15	9%	2.7%	-3%	i	2.7	6%	-0.7%
COc1cc(OC)c(OC)cc1CN(C)C(c1ccccc1)c1nnnn1-c1ccccc1C (stereo not drawn)	24	4	i	30	7%	19%	14%	i	1.1	5%	-0.7%
CN(C)C(CNc1nnnn1-c1ccccc1)c1ccco1 (stereo not drawn)	0	-19	i	34	24%	3.1%	1%	i	0.5	5%	1.8%
COC(=O)c1[nH]c2ccc(C)cc2c1NC(=O)CN1CCN(Cc2ccccc2)CC1	16	-3	i	46	9%	20%	-3%	i	2.7	13%	-0.9%
